LANA-nucl inh: LANA-nucleosome interaction inhibition; FITC-LANA1-23 / chicken nucleosome fluorescence polarization; active compounds read low; z-score (no concentration beside the values); actives 0.3% (n = 51,000);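 active = both repeat wells score below -2 in polarization z-score versus plate sample wells, excluding overly bright wells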;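 note: 100 nL library stock added to about 30 µL; numbers are from one replicate; some results filed as inactive read as strong as hits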
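Assay system: purified chicken nucleosomes with FITC-labelled LANA N-terminal peptide (1-23) / Probe or stimulus: 50 nM FITC-LANA1-23 probe / Compound dosing: pin-transferred compound, 100 nL / Times: compound with peptide–nucleosome mix 10–45 min at room temperature / Technique: fluorescence polarization, 480 nm excitation, 535 nm parallel and perpendicular emission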
Ab BasE inh: inhibitors of Acinetobacter baumannii siderophore enzyme BasE. actives 0.1% (n = 84,000). purified BasE, fluorescence polarization binding displacement. inhibition, % (no concentration beside the values);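 active = both replicates above 25% with normal brightness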;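 note: 0% = negative plate control signal and 100% = positive plate control signal; stock transfer was 100 nL into about 30 µL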
Numbers without * were called inactive; / = not tested or not shown; & = joins results of further samples. Not all compounds are listed, so the mix of outcomes need not match the whole.

SMILES | LANA-nucl inh | Ab BasE inh
COc1ccccc1N1CC(C(=O)OCn2nnc3ccccc3c2=O)CC1=O (configuration not stated) | / | 2.6
COc1ccc(-c2noc(NC3CCCc4ccccc43)n2)cc1 (configuration not stated) | 1.3 | 0.3
CCOC(=O)c1ccc(NC(=S)NCCn2cc(Br)cn2)cc1 | -1.3 | 1.1
Cc1ccc2[nH]c(-c3ccccc3)c(CN3CCC(C)CC3)c(=O)c2c1 | 0.58 | -2.5
O=C(Nc1ccc(N2CCOCC2)cc1)c1cc2cc(Cl)ccc2[nH]1 | -0.83 | /
CNC(=O)CN(C#N)c1nc(N(C)C)nc(N(C)C)n1 | 0.3 | 2.7
c1cc(CNC2CCCC2)ccn1 | 0.28 | -0.8
Cc1nc(N2CC(O)CC2C(N)=O)c2c(-c3ccccc3)csc2n1 (configuration not stated) | / | -1.2
COc1ccc(S(=O)(=O)c2c(SC)nn(C)c2N)cc1 | -0.55 | 0.7
CC(C)(O)C1Cc2cc3ccc(=O)oc3cc2O1 (configuration not stated) | 0.61 | -0.2
COC(=O)c1sccc1NC(=O)c1cc(C)on1 | -0.85 | 3.2
COc1ccc(OCCOC(=O)c2cccs2)cc1 | / | 1.2
NC(=O)C1CCN(C(=O)COc2ccc(Cl)cc2Cl)CC1 | 0.59 | 0.9
COC(=O)C1=C(NC(=O)c2cccc(C)c2)CCS1 | -0.76 | 4.3
COc1ccc(OC)c(C(=O)COC(=O)c2ccco2)c1 | / | 1.0
O=C1CC(NC2CCN(C(=O)c3cccc(F)c3)CC2)C(=O)N1 (configuration not stated) | 0.98 | 1.4
COC(=O)c1cc(C(=O)Cc2ccccc2)c[nH]1 | 1.1 | /
C/C(C/C(C)=C1/SC(=S)NC1=O)=C1\SC(=S)NC1=O | / | 5.0
C[C@@H](O)[C@H]1C(=O)N2C(C(=O)O)=C(S[C@@H]3CN[C@H](C(=O)N(C)C)C3)[C@H](C)[C@H]12 | 1&0.34&0.072 | -3.1
O=C1C2ON(c3ccccc3)C(c3ccco3)C2C(=O)N1c1ccccc1 (configuration not stated) | / | 2.8
CCOc1ccc(OCCOc2ccc(CNCC(=O)N(C)C)cc2OCC)cc1 | / | -3.0
O=C(NCC(=O)N1CCN(C2CCS(=O)(=O)C2)CC1)c1ccc2c(c1)OCO2 (configuration not stated) | / | 1.5
O=C(CN1CCN(C(=O)c2ccc(-c3ccccc3)cc2)CC1)N1CCCC1 | / | -2.6
C=CCN(c1ccc(C(=O)N2CCC(C(=O)OCC)CC2)cc1)S(C)(=O)=O | -0.6 | -0.4
Oc1cccc2c1Cc1ccccc1-2 | -0.91 | 0.7
O=C(O)C1C2C=CC(O2)C1C(=O)Nc1ccc(S(=O)(=O)N2CCc3ccccc32)cc1 (configuration not stated) | 0.29 | -0.7
COC(=O)Cn1c2c(c3cc(C)ccc31)CCCC2 | / | 1.4
O=C(Cn1cnc2c(cnn2CCO)c1=O)c1ccc(Cl)cc1 | -0.11 | -4.5
O=C(N/N=C/c1ccccn1)NC12CC3CC(CC(C3)C1)C2 | -0.18 | 0.8
CCS(=O)(=O)c1ccc(O)c(NC(=O)Nc2ccccc2)c1 | / | 1.6
Fc1ccc(-c2nnc(CSCc3cccc4ccccc34)o2)cc1 | / | -1.6
Cc1onc(-c2ccccc2)c1C(=O)OCC(=O)N(C)Cc1cccs1 | / | 0.7
O=C(CC(NCc1ccccc1)C(=O)O)Nc1cccnc1 (configuration not stated) | 1.8 | 0.8
C=CCNC(=O)/C=C/c1cccs1 | / | 2.9
CSc1ccc(C(=O)CCC(=O)O)cc1 | / | 1.6
COc1ccccc1OCC(=O)NCC1CCCCC1 | / | -4.3
O=C(CCC(=O)c1ccc2c(c1)OCCO2)OCc1ncc(-c2ccccc2)o1 | / | -1.6
Cc1nnc(NC(C)C)s1 | / | 1.3
Cc1ccc(NNC(=S)NC(C)C)c(C)c1 | / | 1.3
Clc1ccc(SCc2csc(-c3ccno3)n2)cc1 | 0.091 | -0.2
COc1cccc(/C=N/n2cnc3sc4c(c3c2=O)CCCC4)c1 | / | 0.6
CC(C)N(C(C)C)S(=O)(=O)c1ccc(N2CCc3ccccc3C2)nc1 | / | 0.3
Cn1c(SCCN2CCCC2)nnc1C1CCN(C(=O)Cc2cccc(Cl)c2)CC1 | -0.87 | 2.5
Cc1nc(N(C)CC(=O)N2CCOCC2)c2c(-c3ccccc3)csc2n1 | / | -0.4
COc1ccccc1S(=O)(=O)Nc1ccc2nc(SC)sc2c1 | / | 1.7
CCC1Sc2ccc(S(=O)(=O)CCC(=O)N3CCOCC3)cc2NC1=O (configuration not stated) | -0.55 | 0.7
Cn1c(/C(C#N)=c2/s/c(=C\c3ccsc3)c(=O)n2-c2ccccc2)nc2ccccc21 | / | 1.3
O=C1CCCC/C1=C\N1CCOCC1 | / | 1.6
O=C(OCCN1C(=O)c2ccccc2C1=O)c1cc(-c2ccco2)nc2ccccc12 | / | -0.3
COc1cccc(OC)c1C(=O)Nc1c(C)c(N2CCCC2)cc2c1C(C)(C)CC2(C)C | 0.51 | /
Cc1cc(C(=O)CCC(=O)O)cc(C)c1O | -0.21 | -1.6
COc1cc(C(=O)N2CCC(n3nnc4cc(F)ccc43)CC2)cc(OC)c1OC | 0.66 | -1.1
O=C(Nc1ccccc1C(=O)OCc1csc(Nc2ccccc2)n1)c1ccco1 | / | -3.5
CCc1ccc(CNC(=O)C2CCCN2c2nnc(N3CCCC3=O)s2)cc1 (configuration not stated) | -0.12 | 1.8
CCOC(=O)c1[nH]cnc1C(=O)NC1CCCCC1 | -0.06 | 0.7
O=C(Cc1nc(=O)c2ccccc2s1)Nc1ccccc1 | 0.11 | /
COC(=O)c1cc2c(ccn2-c2ccc(F)cc2)n1CC(=O)Nc1ccc(C)cc1 | 1.5 | -2.4
O=C(CCC(=O)N1CCSc2ccccc21)Nc1cccc(F)c1 | 0.12 | -1.6
O=C(Cc1csc(NC(=O)Cc2ccccc2)n1)NO | 0.32 | -0.9
CCCc1cc(=O)[nH]c2nnc(SCC(=O)Nc3ccccc3C(F)(F)F)n12 | 0.39 | -1.7

Rewritten with two lines to a compound: entries from further up.
Results follow in this order: LANA-nucl inh, Ab BasE inh
O=C(O)C1C2C=CC(O2)C1C(=O)Nc1ccc(S(=O)(=O)N2CCc3ccccc32)cc1 (configuration not stated)
 : 0.29, -0.7
CSc1ccc(C(=O)CCC(=O)O)cc1
 : /, 1.6
Cn1c(/C(C#N)=c2/s/c(=C\c3ccsc3)c(=O)n2-c2ccccc2)nc2ccccc21
 : /, 1.3
Cc1nc(N(C)CC(=O)N2CCOCC2)c2c(-c3ccccc3)csc2n1
 : /, -0.4

3 records picked at random from those above, as already listed:
SMILES | LANA-nucl inh | Ab BasE inh
O=C1CCCC/C1=C\N1CCOCC1 | / | 1.6
O=C(Cc1csc(NC(=O)Cc2ccccc2)n1)NO | 0.32 | -0.9
Cc1nc(N(C)CC(=O)N2CCOCC2)c2c(-c3ccccc3)csc2n1 | / | -0.4

Further compounds follow.
SMILES | LANA-nucl inh | Ab BasE inh
CC(=O)N1CCC(=NNc2ccnc3cc(Cl)ccc23)CC1 | / | 0.6
c1cc(Oc2ncnc3sc4c(c23)CCCC4)cc(-n2cnnn2)c1 | / | 0.3
Cn1c(=O)c2c(nc(NNC(=O)C(F)(F)F)n2C)n(C)c1=O | -0.41 | 1.0
Cc1cccc2c1SC1CCCCC1OC(=O)N2 (configuration not stated) | 0.28 | -1.4
COc1ccc(-c2csc(-n3nc(C)cc3C)n2)cc1 | -0.8 | /
N#Cc1c(NC(=O)c2cccnc2)sc2c1CCCC2 | 0.65 | -2.0
Cc1cc(C(=O)O)on1 | -0.15 | 0.4
CCCCC/C=C\C/C=C\C/C=C\C/C=C\CCCCCC(=O)O | -0.45 | -2.9
O=C(O)CCCC(=O)N1CCN(c2ncccn2)CC1 | / | 3.3
CN(C(=O)CSc1ccc(Cl)cc1)c1ccccc1C(=O)NC1CCCCC1 | / | -5.1
Cc1ccc(NS(=O)(=O)c2c(C(C)C)cc(C(C)C)cc2C(C)C)cc1 | / | 0.0
NC(=O)C1CCN(CN2C(=O)c3ccccc3C2=O)CC1 | / | -2.5
Nc1[nH]ncc1S(=O)(=O)c1ccccc1 | 2.3 | /
O=C1CCCC(=O)C1C(c1ccccc1)C1C(=O)CCCC1=O | / | 1.0
COc1cc2c(cc1OC)C(C)N(C(=O)c1ccc(F)cc1)CC2 (configuration not stated) | -0.73 | 2.4
Cc1onc(-c2c(Cl)cccc2Cl)c1NC(=O)N1CCOCC1 | 2 | -2.9
O=C(Nc1nccs1)C1CC1 | / | 1.7
O=C(Nc1cccc(F)c1)C1CCCN(c2cnccn2)C1 (configuration not stated) | -0.23 | 2.9
S=C(NCCc1ccccc1)NCCc1c[nH]c2ccccc12 | / | 2.5
N#C/C(=C\Nc1ccccc1)c1ccccc1 | -0.67 | 0.3
Cc1[nH]nc2c1C1(C(=O)N2)C(C#N)=C(N)Oc2ccc(Br)cc21 (configuration not stated) | 0.16 | -4.3
CC1CCN(S(=O)(=O)c2ccc(C(=O)NCCSCc3ccco3)cc2)CC1 | / | 1.0
Nc1nc(CSCCO)nc(Nc2ccccc2)n1 | 1.3 | -0.2
N/C(=N\c1nc2ccccc2o1)NC(=O)c1ccccc1NC(=O)c1ccccc1 | / | 1.5
CC(OC(=O)C1CCCCC1)C(=O)Nc1ccc(Cl)cn1 (configuration not stated) | / | 0.6
Nc1ccccc1OC1CCCC1 | 0.23 | -2.5
O=C(O)CN1C(c2ccccc2O)Nc2ccc(Br)cc2C1c1ccccc1 (configuration not stated) | 0.093 | 4.0
CCN(CC)S(=O)(=O)c1cccc(C(=O)OCC(=O)c2cc(C)n(C3CC3)c2C)c1 | / | 1.7
COc1ccc2c(c1)s/c(=N\NC(=S)NC(=O)CN1C(=O)CCC1=O)n2C | 0.72 | -1.1
O=C(Nc1ccc2c(c1)OCCCO2)C1CCCN(C(=O)c2ccc(Cl)cc2)C1 (configuration not stated) | / | -0.1
CN(C)C=Nc1nonc1-c1ccccc1 | / | -0.4
CN1CCN(CC(=O)N(c2ccccc2)c2ccc(O)cc2)CC1 | 0.79 | 1.6
CCOC(=O)c1oc2ccc(CC/C(C)=N/NC(=O)c3ccoc3C)cc2c1C | / | 0.6
O=C(CSc1nc2ccccc2o1)N1CCc2c([nH]c3ccccc23)C1C(F)(F)F (configuration not stated) | 2.4 | -4.2
CCOC(=O)c1cc(NC(=O)CN2CCCC2)cc(C(=O)OCC)c1 | / | -0.8
Cc1nnc(SCC(=O)O)o1 | -0.12 | 3.7
COc1cc(NC(=O)CN2C(=O)c3ccccc3C2=O)c(OC)cc1Cl | -0.063 | 1.3
CC(C)C1Cc2c(sc3[nH]c(=S)n(Cc4ccccc4)c(=O)c23)CO1 (configuration not stated) | / | 0.8
CC12CC3CC(C)(C1)CC(NCc1cccnc1)(C3)C2 | 0.0075 | -2.7
Cc1nc(Cc2nnc(SCc3cn4cccc(C)c4n3)o2)cs1 | / | -0.2
O=C(Nc1ccc(OCc2ccccc2)cc1)N1CCN(C(=O)C2COc3ccccc3O2)CC1 (configuration not stated) | / | 1.8
COc1ccc(C(=O)N2CCc3cc(OC)c(OC)cc3C2C)cc1 (configuration not stated) | / | 0.0
Clc1cn2ccsc2n1 | / | 0.7
O=C(NC1C2CC3CC(C2)CC1C3)c1ccc2c(c1)OCO2 (configuration not stated) | 0.96 | -0.7
C=CCSc1nc2[nH]ncc2c(=O)[nH]1 | 0.14 | -0.2
COc1ccc(N2CCN(C(=O)CCc3ccccc3OC)CC2)cc1 | / | 0.2
CCOC(=O)c1nnc(Cc2ccc(F)cc2Cl)o1 | -0.25 | 0.4
CC(=O)N1CCOc2ccc(S(=O)(=O)NCCc3ccccc3)cc21 | 0.61 | 0.3
Cc1nnc(Nc2ccc(C(=O)O)cc2)[nH]c1=O | 1.7 | -3.7
CCOC(=O)c1sc(-c2ccc3c(c2)OCCO3)cc1N | / | -2.7
CC(C)(C)NCC(O)c1cc(O)cc(O)c1 (configuration not stated) | 0.14&-0.13&0.29 | 0.3&1.6
COc1ccc(CC(=O)Nc2sccc2C(N)=O)cc1 | / | -1.7
CCCCC(=O)Nc1ccc2oc(-c3ccc(OC)c(Cl)c3)nc2c1 | -0.38 | 1.5
S=c1[nH]c(-c2ccccc2)cn1/N=C/c1ccc2c(c1)OCO2 | / | 1.1
CC1CCN(S(=O)(=O)c2cc(S(=O)(=O)N3CCC(C)CC3)c3cccc4c3c2SC4=O)CC1 | -0.86 | 4.2
Cc1ccc(C(=O)NNc2nnc(C)c(=O)[nH]2)cc1 | 0.32 | 1.0
O=C(O)CSc1nccn1Cc1ccccc1 | -0.46 | 2.7
O=C(O)CSC1=NC2CCCCC2N1 (configuration not stated) | 0.22 | -0.4
CSc1nnc(CCNC(=O)Nc2ccccc2)n1C(C)C | -0.4 | -0.8
CNC(=O)c1cccc2cccc(Br)c12 | / | -1.2
N#Cc1cn(CC(=O)NCc2ccccc2)c2ccccc12 | -1.4 | 0.9
Cc1nonc1C(=O)N/N=C/c1ccccc1 | 1.8 | -4.6
O=C(CNC(=O)c1cc(N2CCOCC2)ccn1)Nc1ccc(F)c(F)c1F | / | 0.4

Exported with values under each structure: 3 of the compounds above.
Sequence of screens – LANA-nucl inh | Ab BasE inh
Cc1nnc(Nc2ccc(C(=O)O)cc2)[nH]c1=O
    1.7 | -3.7
S=c1[nH]c(-c2ccccc2)cn1/N=C/c1ccc2c(c1)OCO2
    / | 1.1
CC1CCN(S(=O)(=O)c2cc(S(=O)(=O)N3CCC(C)CC3)c3cccc4c3c2SC4=O)CC1
    -0.86 | 4.2

Screens deposited in PubChem BioAssay by ICCB-Longwood Screening Facility, Harvard Medical School.
